From PubChem
Mtb MenB inh – Mtb MenB enzyme inhibition. P9WNP5. MenB enzyme assay, absorbance read-out; some hits fall short of the stated cut. inhibition, %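 (about 12 µg/mL by stock and volumes)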. actives 0.43% (n = 100,000);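 active = mean of two replicates above 30%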;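 note: 0% = no compound and 100% = wells with inactive enzyme; the first replicate is given; strong numbers were not always called active; inactives centre near -10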
Polio RdRp inh – inhibitors of poliovirus RNA polymerase binding and polymerization. P03300. poliovirus polymerase elongation, fluorescence polarization; active compounds read low. % elongation, % (compound at 16.7 µg/mL). actives 0.66% (n = 150,000); in the data active = % elongation below about 90%; note: some results filed as inactive read as strong as hits
Target sequence (P03300 1749-2209 limits assumed): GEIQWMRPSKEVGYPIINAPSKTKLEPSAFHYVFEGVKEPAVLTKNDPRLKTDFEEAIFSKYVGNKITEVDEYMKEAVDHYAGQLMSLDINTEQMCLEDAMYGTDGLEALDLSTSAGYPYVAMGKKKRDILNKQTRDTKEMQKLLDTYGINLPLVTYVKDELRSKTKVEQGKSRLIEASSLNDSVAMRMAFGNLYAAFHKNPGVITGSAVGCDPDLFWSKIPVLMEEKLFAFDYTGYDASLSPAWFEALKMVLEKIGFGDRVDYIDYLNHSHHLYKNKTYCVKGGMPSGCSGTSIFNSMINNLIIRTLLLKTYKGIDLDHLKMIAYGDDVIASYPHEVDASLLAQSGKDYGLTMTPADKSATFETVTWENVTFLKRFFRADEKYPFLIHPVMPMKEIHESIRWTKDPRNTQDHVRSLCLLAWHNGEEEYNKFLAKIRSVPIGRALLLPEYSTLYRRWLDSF
Mtb MbtI inh – inhibitors of Mycobacterium tuberculosis siderophore enzyme MbtI; P9WFX0; purified MbtI enzyme, fluorescence intensity read-out; inhibition, %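 (about 17 µg/mL by stock and volumes)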; actives 0.89% (n = 100,000); AID 493033;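 active = above 50% in both replicates, above 80% if mildly self-fluorescent; inactive = the rest, strongly fluorescent compounds included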;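 note: 0% = mean of negative and 100% = mean of positive controls; one replicate is shown; some compounds called inactive have numbers as strong as hits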
Target sequence (P9WFX0 whole entry, looked up): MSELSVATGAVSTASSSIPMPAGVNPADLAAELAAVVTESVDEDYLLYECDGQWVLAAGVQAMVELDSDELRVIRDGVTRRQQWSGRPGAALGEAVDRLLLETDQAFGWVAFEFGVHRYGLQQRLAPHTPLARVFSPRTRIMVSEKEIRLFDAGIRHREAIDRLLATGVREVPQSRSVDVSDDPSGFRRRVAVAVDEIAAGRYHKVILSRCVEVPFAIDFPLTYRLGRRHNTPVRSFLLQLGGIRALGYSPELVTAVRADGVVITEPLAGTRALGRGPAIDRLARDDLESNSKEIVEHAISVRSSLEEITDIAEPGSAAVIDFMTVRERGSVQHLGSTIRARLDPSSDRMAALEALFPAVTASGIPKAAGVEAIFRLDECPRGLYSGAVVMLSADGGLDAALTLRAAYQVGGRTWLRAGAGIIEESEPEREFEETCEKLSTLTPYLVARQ
Polio RdRp inh intensity – further read-out of Polio RdRp inh, marked with its call; % elongation; measured here: total intensity read-out; formula for this scale not given here;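 total fluorescence in place of polarization; lower means less elongation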
Numbers without * were called inactive; nt = no result given.

SMILES	Mtb MenB inh	Polio RdRp inh	Polio RdRp inh intensity	Mtb MbtI inh
CC(C)C(=O)N(Cc1cc2ccccc2[nH]c1=O)CC1CCCO1 (stereo not drawn)	12	100	103	25
COc1ccc(-c2ccc(/C=N/NC(N)=O)o2)cc1	-74	103	105	-102
Cc1n[nH]c(=S)n(/N=C/c2ccccc2)c1=O	-54	105	99	10
CCC(=O)N(c1nnc(SCC(=O)NCC(F)(F)F)s1)C1CC1	-20	103	91	-1
N=Nc1c(O)n(CC(=O)Nc2ccccc2)c2ccccc12	23	102	103	-2
CC1(C)CC(NC(=O)CCc2ccccc2)CC(C)(C)N1	39*	101	101	4
CN(C)c1ccc(/C=C/C=C/c2cc[n+](C)cc2)cc1	-249	102	78	12
CC1CC(C)CN(S(=O)(=O)c2ccc(C(=O)NCc3ccccn3)cc2)C1 (stereo not drawn)	-34	107	99	12
CCOC(=O)c1ccc(N2C(=O)C3Sc4[nH]c(=O)sc4C4(CCCCC4)C3C2=O)cc1 (stereo not drawn)	-2	104	103	9
C#Cc1cccc(N2C(=O)CC(CC=C)C2=O)c1 (stereo not drawn)	-10	101	101	0
O=C(CCC(=O)c1ccc(Cl)cc1)OC1CCCCC1=O (stereo not drawn)	-14	66*	57*	-12
CCN(Cc1ccccc1)C(c1ccccn1)c1nnnn1C1CCCCC1 (stereo not drawn)	34*	102	102	5
COc1cc2c(O)c3c(c(-c4ccc5c(c4)OCO5)c2cc1OC)C(=O)OC3	-15	103	101	89
O=C1c2ccccc2NC(c2cccs2)N1c1ccc2c(c1)OCO2 (stereo not drawn)	2	101	106	1
Cn1nc(C(=O)OCc2nnc(-c3ccccc3)o2)c2ccccc2c1=O	12	100	100	18
CC1CCN(C(=O)/C=C/c2c(F)cccc2Cl)CC1	-12	105	104	1
Cc1c(C)c(C)c(CSC2=NCC(C)N2)c(C)c1C (stereo not drawn)	4	100	107	-2
CC(C)(CNC(=O)c1n[nH]c2ccccc12)N1CCCCC1	-21	106	97	104
Cn1c(SCCCCN2C(=O)c3ccccc3C2=O)nnc1-c1ccccc1	0	99	108	-2
Brc1cnc(N2CCCCC2)nc1N1CCOCC1	-10	101	103	-9
CCOc1ccccc1C(=O)NCc1n[nH]c(=O)c2ccccc12	-13	105	111	-2
O=C(CSc1n[nH]c(=O)n1-c1cccnc1)c1cc(-c2ccccc2)no1	-20	103	102	-3
C=CCSc1nc(N)c2c(C)c(C(=O)O)sc2n1	-25	nt	nt	1
CC1=C(C(=O)Nc2ccccn2)C(c2ccc(C)cc2)C2=C(CC(C)CC2=O)N1 (stereo not drawn)	-105	106	102	84
O=C(Nc1cccc(NC(=S)NC(=O)c2ccco2)c1)c1ccccc1	-64	102	102	14

Next part, overlapping the part above by 2 compounds.
SMILES	Mtb MenB inh	Polio RdRp inh	Polio RdRp inh intensity	Mtb MbtI inh
CC1=C(C(=O)Nc2ccccn2)C(c2ccc(C)cc2)C2=C(CC(C)CC2=O)N1 (stereo not drawn)	-105	106	102	84
O=C(Nc1cccc(NC(=S)NC(=O)c2ccco2)c1)c1ccccc1	-64	102	102	14
N#Cc1c2c(c(Nc3ccccc3)n3c1nc1ccccc13)CCC2	-16	103	106	-2
O=C1CNC(=O)N1c1ccccc1	-9	100	105	13
Cn1sc(=O)c2ccccc21	-12	102	97	13
O=C(NC1CCCCC1)c1cccs1	22	104	99	-1
NC(=O)c1ccc(OCC(=O)c2ccc3c(c2)OCCO3)cc1	-19	101	98	0
Fc1ccc(CNCc2ccccn2)cc1	-7	100	107	-9
Cc1ccc(NC(=S)Nc2ccc3nc(-c4ccco4)c(-c4ccco4)nc3c2)cc1	-32	99	108	44
C[N+]1(CCOCC2CCC[N+]3(C)CCCCC23)CCCCC1 (stereo not drawn)	-11	119	121	nt
Cc1nc2ccc(C(=O)O)cc2s1	5	101	103	-7
CCCC(=O)C1C(=O)CC(C)(C)C(c2cc(C)no2)C1=O (stereo not drawn)	-3	104	102	4
NCC(O)CN1CCN(Cc2ccccc2)CC1 (stereo not drawn)	-24	104	102	-10
CCOC(=O)c1cc2c(nn3cc(C(=O)c4ccccc4O)cnc23)[nH]c1=O	-29	119	142	-7
COC(=O)CCc1n[nH]c(=S)[nH]c1=O	-31	106	106	-3
O=C(NC1CCCC1)c1ccc(CS(=O)(=O)c2ccc(Cl)cc2)o1	-16	98	100	4
C1CCCCCC2(CCCCC1)OCC(CN1CCCCC1)O2 (stereo not drawn)	-4	103	107	-8
CC(=O)Nc1cccc(NS(=O)(=O)c2ccc(C)cc2)c1	-5	100	103	nt
c1ccc2c3c(c(CN4CCCC4)cc2c1)COC3	-8	106	113	nt
N#C/C=C(\c1ccc(F)cc1)n1ccnc1	-1	97	106	5
COC(=O)c1sc(N)c(C(=O)OC)c1CSc1n[nH]c(N)n1	-5	99	105	3
CCOC(=O)C1=NN(C(C)=O)C2C(=O)N(Cc3ccccc3)C(=O)C12 (stereo not drawn)	-5	99	102	-2
O=C(CCCc1nnc2c(=O)n(-c3ccc(Cl)cc3)ccn12)N1CCN(c2ccccc2)CC1	18	100	103	-14
CCN(CC(=O)NCc1cccs1)C(=O)c1ccc2c(c1)SC1=NS(=O)(=O)CCN12	0	110	122	5
NC(=O)c1ccccc1NC(=O)/C=C/c1ccccc1	-4	101	105	-40
CN(C(=O)/C=C/C(=O)O)C1CCCCC1	-4	99	99	-30
COc1ccc(OC)c(CCNC(=O)CCc2nnc3ccc(N4CCN(C)CC4)nn23)c1	-12	102	101	14

Carrying on.
SMILES	Mtb MenB inh	Polio RdRp inh	Polio RdRp inh intensity	Mtb MbtI inh
O=C(CCSc1ccccc1)Nc1ccccc1C(=O)O	-19	101	98	nt
COc1ccccc1C(C)NCc1nc2ccc(Cl)cc2n1CCO (stereo not drawn)	-17	104	109	2
CCN1C(=O)c2cccc3cccc1c23	-49	104	98	4
CCOc1ccc(CCNC(=O)c2nnc(-c3cccnc3)o2)cc1OCC	0	97	102	3
CCc1c(C)[nH]c2ccc(C(=O)O)cc12	-37	100	104	26
CCCCn1c(NCc2ccccn2)nc2ccccc21	-3	99	105	-6
CC(=O)N(Cc1ccc2c(c1)OCO2)c1nnc(C)s1	27	102	101	10
O=C(CN1CCC(n2cnc3cc(F)ccc32)CC1)Nc1ccccc1Br	-41	101	105	-2
CCn1c(=O)n(CC(=O)N2CC(C)CC(C)C2)c(=O)c2ccccc21 (stereo not drawn)	-19	101	97	-7
N#CC1=C2SCC(O)(c3ccccc3)N2C(=O)CC1c1cccs1 (stereo not drawn)	-1	104	102	nt
Cc1ccc(CNc2ccc3c(c2)nc(C)n3C)cc1	5	103	102	116
COc1ccc(NC(=O)CN2CCCn3nc(C)cc32)cc1	-33	100	102	-10
O=C(CCn1nc(-c2ccccc2)ccc1=O)NC1CC1	2	104	102	6
CN(C)C(=O)c1ccccc1-c1ccccc1	-18	102	101	-12
CCSc1nc2ccc(C)cc2cc1C#N	-17	102	103	-24
CCOc1ccc(CN(C)CC(O)COc2cccc(Br)c2)cc1 (stereo not drawn)	-16	98	104	-26
CNC(=O)CSc1nnc(-c2cccc(S(=O)(=O)N3CCCC3)c2)n1-c1ccccc1	-3	100	96	-1
CCOC(=O)C1=C(C)Nc2ccccc2N=C1NC(=O)Cc1ccc(OC)cc1	1	102	111	-5
O=S(=O)(NCc1ccc2c(c1)OCO2)c1ccc(N2CCOCC2)nc1	-8	104	105	-17
COC(CN=Cc1c(O)n(C)c(=O)n(C)c1=O)OC	1	102	106	34
O=C1CCC/C(=N\NC(=O)CCCOc2ccc(Cl)cc2Cl)C1	-16	104	108	-1
COc1cccc(-n2cc(C(=O)N3CCN(C4CCCCC4)CC3)c3ccccc3c2=O)c1	-30	104	101	-21
CCOc1cc(C2CC(=O)NC3=C2C(=O)C(C(=O)OC)C(C)C3)cc(Br)c1O (stereo not drawn)	14	101	97	11
C=CCN1CCN(C(c2ccccc2)c2nnnn2CCC(C)C)CC1 (stereo not drawn)	-51	103	102	-2
c1ccc(CNc2ncnc3sc4c(c23)CCCC4)cc1	-22	103	103	nt

Copied from the list.
Reading for O=S(=O)(NCc1ccc2c(c1)OCO2)c1ccc(N2CCOCC2)nc1 in Mtb MenB inh: -8
Reading for CCN(CC(=O)NCc1cccs1)C(=O)c1ccc2c(c1)SC1=NS(=O)(=O)CCN12 in Mtb MbtI inh: 5
Reading for CCOc1ccccc1C(=O)NCc1n[nH]c(=O)c2ccccc12 in Mtb MenB inh: -13

Some of the entries so far, with values under each structure:
Every second line gives: Mtb MenB inh, Polio RdRp inh, Polio RdRp inh intensity, Mtb MbtI inh
CCc1c(C)[nH]c2ccc(C(=O)O)cc12
→ -37, 100, 104, 26
CCCCn1c(NCc2ccccn2)nc2ccccc21
→ -3, 99, 105, -6
CC(=O)N(Cc1ccc2c(c1)OCO2)c1nnc(C)s1
→ 27, 102, 101, 10
O=C(CN1CCC(n2cnc3cc(F)ccc32)CC1)Nc1ccccc1Br
→ -41, 101, 105, -2
CCn1c(=O)n(CC(=O)N2CC(C)CC(C)C2)c(=O)c2ccccc21 (stereo not drawn)
→ -19, 101, 97, -7

(list continues)
SMILES	Mtb MenB inh	Polio RdRp inh	Polio RdRp inh intensity	Mtb MbtI inh
O=c1[nH]c(=O)c2nc3ccccc3nc2[nH]1	-18	97	103	0
CCCCN(C)Cc1c(O)ccc2c(=O)c(-c3ccccc3OC)c(C(F)(F)F)oc12	-33	103	100	2
CCCNS(=O)(=O)c1ccc(N2CCCCS2(=O)=O)cc1	-26	100	101	9
COC(=O)c1ccc(-c2nc(NC(C)=O)c3c(=O)oc4ccccc4c3n2)cc1	15	101	102	4
CCN(CC)c1ccc2c(c1)OC(=O)N(c1ccc(Cl)c(Cl)c1)P2(=O)N1CCOCC1 (stereo not drawn)	-9	104	111	-21
CCOC(=O)Nc1ccc2c(Cn3nnc(-c4ccc(Cl)cc4)n3)cc(=O)oc2c1	10	113	113	100
Clc1cccc(CN2CN(Cc3ccccc3)c3nc4ccccc4n3C2)c1	-24	106	107	-9
CN(C1CCCCC1)S(=O)(=O)c1cccc(C(=O)Nc2ccc3c(c2)OCCO3)c1	4	nt	nt	29
NC(=O)CN1C(=O)CC(c2ccccc2)=Nc2ccccc21	-8	102	103	-9
CC(C)c1ccccc1Oc1coc2cc(OCC(=O)NC3CCCCC3)ccc2c1=O	-27	100	100	-16
CCN1C(=O)C2C(c3ccco3)NC(C(=O)OC)(c3ccccc3)C2C1=O (stereo not drawn)	-5	101	103	3
c1csc(-c2nc(NC3CC3)c3ccccc3n2)c1	-6	101	113	18
CC(=O)N1c2ccccc2C2(O)N=C(C)SC12 (stereo not drawn)	-17	97	97	104
O=C1N=C(N2CCOCC2)S/C1=C1\C(=O)N(Cc2ccc(Cl)cc2)c2ccccc21	10	102	104	0
CSC(=NC1CCCCC1)NS(=O)(=O)c1ccccc1	13	100	97	5
O=C1CN(c2ccccc2)S(=O)(=O)c2ccccc2N1	-15	102	104	-4
CN1C(=O)N(c2ccc(Cl)cc2)C(C)(O)CC1(C)C (stereo not drawn)	1	104	110	-8
O=C(O)CNC(=O)c1ccc(-c2ccccc2)cc1	0	98	96	-1
COc1ccccc1/C=C1/SC(=S)NC1=O	nt	107	111	-2
COc1cc(C(=O)OCC(=O)N2CCCC2=O)cc(OC)c1C	1	107	107	-33
Cc1cccc(/C=C2\SC(=O)N(CCC(=O)Nc3ccccc3N3CCOCC3)C2=O)c1	-30	105	105	1
Cc1ccc(S(=O)(=O)N2CCSC2C(=O)O)cc1 (stereo not drawn)	-54	104	102	-4
CCCOc1cc(C(N)=O)ccc1OC	0	101	101	-2
CCCc1[nH]nc2c1C(c1c(Cl)noc1C)C(C#N)=C(N)N2c1ccccc1 (stereo not drawn)	-14	109	112	nt
COc1ccc(N=c2oc3ccc(Cl)cc3cc2C(=O)NCc2ccco2)cc1OC	-21	100	105	-26
O=c1oc2ccccc2c(O)c1Cc1ccccc1	-15	101	102	-48
C=CCn1c(/N=C/c2ccc3c(c2)OCO3)nc2ccccc21	-108	103	103	-15
CC(C)C1C(C=C(Cl)Cl)C1C(=O)N1CCN(Cc2ccccc2)CC1 (stereo not drawn)	nt	100	95	-13

Rewritten with values under each structure: part of the list above
Every second line gives: Mtb MenB inh | Polio RdRp inh | Polio RdRp inh intensity | Mtb MbtI inh
> CC(C)C1C(C=C(Cl)Cl)C1C(=O)N1CCN(Cc2ccccc2)CC1 (stereo not drawn)
  nt | 100 | 95 | -13
> CCCNS(=O)(=O)c1ccc(N2CCCCS2(=O)=O)cc1
  -26 | 100 | 101 | 9
> O=c1[nH]c(=O)c2nc3ccccc3nc2[nH]1
  -18 | 97 | 103 | 0
> O=C1CN(c2ccccc2)S(=O)(=O)c2ccccc2N1
  -15 | 102 | 104 | -4
